WNV protease inh: inhibitors of West Nile virus NS2B-NS3 protease; z-score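 (tested at a level between 10 and 100 µM)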; P06935; 65,000 compounds, 0.18% hits; WNV NS2B-NS3 protease, fluorogenic substrate Ex360/Em465; stronger effect = lower value;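 active = z-score at -3 or under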;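 also: score is relative to mean and spread of the compound wells of a plate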
Target sequence (P06935 1371-1501 limits assumed): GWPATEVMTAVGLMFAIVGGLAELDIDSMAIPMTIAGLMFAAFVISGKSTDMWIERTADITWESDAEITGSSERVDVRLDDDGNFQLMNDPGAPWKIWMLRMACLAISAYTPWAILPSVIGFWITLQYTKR
Target sequence (P06935 1502-1679 limits assumed): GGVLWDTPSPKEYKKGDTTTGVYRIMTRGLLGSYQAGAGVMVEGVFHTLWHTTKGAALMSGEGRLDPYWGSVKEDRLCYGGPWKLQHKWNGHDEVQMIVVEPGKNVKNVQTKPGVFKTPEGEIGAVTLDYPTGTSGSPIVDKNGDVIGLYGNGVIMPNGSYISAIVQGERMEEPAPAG
Hsc70: small molecules displacing fluorescent ligand from Hsc70 – biochemical, fluorescence polarization, primary screen (AID 568); displacement, % at 20 µM, or IC50 in µM where a hit was titrated; 83,000 tested, under 10 active; Hsc70 fluorescence polarization, probe displacement; higher % means a stronger effect; strong numbers were not always called active;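 active = displacement above 50% without optical interference and an IC50 on retest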;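 also: ATPase domain with a fluorescein-tagged ATP probe; 0% = vehicle and 100% = excess ADP; read after one hour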
MT1-MMP promoter: MT1-MMP gene expression reporter suppression – cell-based, luciferase reporter, luminescence (AID 618); MT1-MMP promoter luciferase reporter cells, luminescence; calls from a first round at 10 µM; hits with a dose series show EC50 in µM; 87,000 compounds, 0.62% hits;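 active = over half of the reporter light lost at 10 µM or EC50 under 50 µM; inactive = the rest and hits that failed the dose series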;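 also: actives suppress MT1-MMP promoter-driven transcription so potencies describe inhibitors; HT1080 fibrosarcoma cells; overnight exposure; toxic or luciferase-blocking compounds were not removed from the actives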
Starred values were filed as active, the others as inactive; i = inactive; x = not tested or not shown; & = joins results of further samples.

no. | Compound | WNV protease inh | Hsc70 | MT1-MMP promoter
1 | C(=N\n1cncn1)/c1ccc(N2CCOCC2)cc1 | 1.2 | -2.0% | i
2 | CN(CP(=O)(O)CCc1ccccc1)S(C)(=O)=O | -0.3 | 3.5% | i
3 | CCCCC(C(=O)NCCC(C)C)N(CCCN1CCOCC1)C(=O)c1snc(C(N)=O)c1N (stereo unspecified) | -0.45 | 8.2% | i
4 | O=C(CSc1nnc(-c2ccccc2)c(-c2ccccc2)n1)NCc1ccco1 | x | -3.3% | i
5 | Brc1cccc(-c2nnc3sc(CN4CCCCC4)cn23)c1 | -0.23 | 2.2% | i
6 | O=C(CSc1nc2ncccc2[nH]1)Nc1ccc2c(c1)OCCO2 | 0.52 | -4.8% | i
7 | C=CCn1c(C(C)NC(=O)COC)nc2ccccc21 (stereo unspecified) | 1.1 | -0.1% | i
8 | Fc1ccc(C(c2nnnn2Cc2ccco2)N2CCN(C3CCCCC3)CC2)cc1 (stereo unspecified) | -0.93 | 2.2% | i
9 | COCCCN(C(=O)Nc1ccccc1)C(C)c1ccncc1 (stereo unspecified) | -1.1 | 1.5% | i
10 | O=C(O)c1[nH]c2ccccc2c1NS(=O)(=O)Cc1ccccc1 | 0.53 | 1.2% | i
11 | CC(=O)Nc1sc2c(c1C#N)CCCC2 | x | -0.5% | i
12 | CCC(Sc1nc(C)cc(=O)[nH]1)C(=O)Nc1nc2c(s1)CCCC2 (stereo unspecified) | 3.1 | 3.8% | i
13 | CSc1nnc(-c2cccc(C)c2)n1N | x | 0.8% | i
14 | COc1ccc(C2(C(=O)NC3CCCCC3)CCOCC2)cc1OC | x | 0.4% | i
15 | Cc1ccc(-c2noc(C3CCN(C(=O)Nc4ccc(C#N)cc4)CC3)n2)o1 | -0.77 | 0.1% | i
16 | CCOC(=O)Nc1c(O)ccc2oc(C)c(-c3ccccc3)c12 | 0.78 | 4.2% | i
17 | Nc1ccc2c(c1)ncn2CCCn1cnc2cc(N)ccc21 | 1.2 | -0.5% | i
18 | CCOC(=O)CSc1nc2ccccc2c(=O)[nH]1 | 0.4 | 2.6% | i
19 | O=C1CCCc2nn(-c3ccccc3)nc21 | x | -1.8% | i
20 | O=C1CCCN1CCCNc1ncnc2c1[nH]c1ccccc12 | 0.21 | 2.8% | i
21 | Cc1cnc(NC(=O)CCCSc2nc3ccccc3s2)s1 | 0.59 | -21% | i
22 | CCCCN(CCCC)c1nc2ccccc2nc1NS(=O)(=O)c1ccc(NC(C)=O)cc1 | x | -5.0% | i
23 | CCOC(=O)CSc1nnc(CNC(=O)c2ccc(S(=O)(=O)N3CCCCC3)cc2)n1C | -1.4 | 2.2% | i
24 | COc1ccc(CN/C=C2\CCCCC2=O)cc1 | -0.71 | -5.6% | i
25 | O=C(CCS(=O)(=O)Cc1ccccc1)N1CCN(Cc2ccccc2)CC1 | 0.41 | -6.1% | i
26 | CC12CCC(C(=O)NCc3ccccn3)(OC1=O)C2(C)C (stereo unspecified) | -0.81 | 0.0% | i
27 | CCCn1c(SCC(=O)Nc2sc(C)c(C)c2C(=O)OC)nc2c1c(=O)n(C)c(=O)n2C | -3.8* | -10% | i
28 | Cn1c(=O)c2c(nc(N3CCOCC3)n2Cc2c(F)cccc2Cl)n(C)c1=O | 1.7 | -6.4% | i
29 | CC(=O)c1cccc(NC(=O)CC2SC(N3CCCCC3)=NC2=O)c1 (stereo unspecified) | 0.45 | 1.0% | i
30 | Cc1ccc2oc(-c3ccco3)nc2c1 | 0.85 | -3.3% | i
31 | Cn1c(=O)[nH]c(=O)c2c1ncn2CCN1CCOCC1 | 0.19 | -1.0% | i
32 | CC(C)CCNC(=O)C(c1ccco1)N(Cc1cccs1)C(=O)Cn1nnc2ccccc21 (stereo unspecified) | 0.4 | -1.7% | i
33 | COc1ccccc1NC(=O)C1CCCN(c2nc(C)cc(C)n2)C1 (stereo unspecified) | x | 3.4% | i
34 | c1coc(-c2nc(-c3ccncc3)no2)c1 | 0.73 | -4.8% | i
35 | CCn1c(CNC(=O)C(C)(C)C)nc2ccccc21 | 0.43 | 2.6% | i
36 | CCOc1ccc(NC(=O)N2CCC(n3nnc4cc(C)ccc43)CC2)cc1 | x | 3.5% | i
37 | COc1ccc(NC(C)=O)cc1NC(=O)CN1CCN(c2ccccn2)CC1 | 0.41 | 1.7% | i
38 | COc1ccccc1OCc1ccc(C(=O)NCCN(C)C)o1 | -0.26 | -4.8% | i
39 | CN(C)C(=O)C(=O)c1cccn1-c1ccccc1C#N | x | 3.2% | i
40 | O=c1c2c3n(c(=S)nc2[nH]n1-c1ccccc1)CCCCC3 | x | 5.3% | i

An excerpt of these results, field by field:
[33] COc1ccccc1NC(=O)C1CCCN(c2nc(C)cc(C)n2)C1 (stereo unspecified)
  WNV protease inh: x	Hsc70: 3.4%	MT1-MMP promoter: i

[36] CCOc1ccc(NC(=O)N2CCC(n3nnc4cc(C)ccc43)CC2)cc1
  WNV protease inh: x	Hsc70: 3.5%	MT1-MMP promoter: i

Later entries.
no. | Compound | WNV protease inh | Hsc70 | MT1-MMP promoter
41 | O=C(CSc1nnc(COc2ccc(F)cc2)o1)N1c2ccccc2CCc2ccccc21 | 1.3 | -5.0% | i
42 | O=C(O)CCSc1nc2ccccc2c(=O)[nH]1 | -0.17 | 0.3% | i
43 | CC1c2[nH]c3ccccc3c2CCN1C(=O)Nc1ccccc1 (stereo unspecified) | 0.68 | 3.0% | i
44 | CCOc1ccccc1-n1c(SCC(N)=O)nnc1-c1ccco1 | -0.96 | 3.1% | i
45 | O=C(O)c1oc2ccccc2c1CN1CCN(c2ccccc2)CC1 | -0.51 | -2.7% | i
46 | O=C(CSc1nc(C2CCCCC2)n(-c2ccccc2)n1)NCCN1C(=O)CSC1=O | 1 | 4.1% | i
47 | CCOC(=O)C1CCCN(c2ncnc3c2cnn3-c2cccc(C)c2)C1 (stereo unspecified) | -0.23 | -8.3% | i
48 | O=c1oc2c(CN3CCCCC3)c(O)ccc2c2c1CCCC2 | x | 0.9% | i
49 | CCN(Cc1ccncc1)C(=O)c1cccs1 | 1.1 | 7.8% | i
50 | C/C(Cl)=C\Cn1c(N2CCCC2)nc2c1c(=O)[nH]c(=O)n2C | 0.77 | -4.6% | i
51 | CNC(=O)c1ccccc1NC(=O)c1c(O)c2c([nH]c1=O)CCCC2 | 0.02 | 7.7% | i
52 | Cc1c(C(=O)Nc2ccc(-n3cnnn3)cc2)oc2ccccc12 | 0.06 | -2.3% | i
53 | CCOc1cc(C2C3=C(CCCC3=O)N(C)C3=C2C(=O)CCC3)cc(Cl)c1O | -1.1 | 8.8% | i
54 | CS(=O)(=O)Nc1ccccc1Oc1ccccc1 | -0.41 | -5.6% | i
55 | CC(C)NC(=O)c1cc2c(s1)CCCC2 | x | -2.3% | i
56 | Cc1ccc(C(=O)CCC(=O)CCC(=O)O)cc1 | x | 2.1% | i
57 | COc1ccc(CCn2nnnc2C(c2ccc(C)cc2)N2CCN(C)CC2)cc1OC (stereo unspecified) | -0.0097 | -6.2% | i
58 | COc1ccc(-n2c(Cn3c(=O)sc4ccccc43)nnc2SCC(N)=O)cc1 | -0.08 | 5.2% | i
59 | O=C(NCC1CCCO1)NC1CCCCC1 (stereo unspecified) | x | -6.3% | i
60 | COc1cc(CNC2CCCCCC2)cc(OC)c1 | x | 5.9% | i
61 | CSc1ccc(-c2nnn(Cc3ccc(Br)cc3)n2)cc1 | x | -1.8% | i
62 | C(=N\n1cnnc1)/c1ccccc1OCCOc1ccccc1 | 0.3 | -4.6% | i
63 | O=C1CC(Nc2ccccc2)C(=O)N1CCc1ccccc1 (stereo unspecified) | x | -3.1% | i
64 | CC(C)(Sc1cc(C(C)(C)C)c(O)c(C(C)(C)C)c1)Sc1cc(C(C)(C)C)c(O)c(C(C)(C)C)c1 | x | -5.7% | i

Part of the list above, as labelled records:
(11) CC(=O)Nc1sc2c(c1C#N)CCCC2
  WNV protease inh = x	Hsc70 = -0.5%	MT1-MMP promoter = i

(12) CCC(Sc1nc(C)cc(=O)[nH]1)C(=O)Nc1nc2c(s1)CCCC2 (stereo unspecified)
  WNV protease inh = 3.1	Hsc70 = 3.8%	MT1-MMP promoter = i

Remaining list, next part
no. | Compound | WNV protease inh | Hsc70 | MT1-MMP promoter
65 | Cc1ccc(-c2[nH]nc3c2C(c2ccccc2OC(=O)N2CCOCC2)C(C#N)=C(N)O3)cc1 (stereo unspecified) | 0.29 | -4.0% | i
66 | CC(=O)c1ccc(NC(=O)CSc2nnc(Cc3cccn3C)n2-c2ccc(F)cc2)cc1 | 2.2 | 6.0% | i
67 | CCN1CCN(CC(O)COc2ccc(Cl)cc2)CC1 (stereo unspecified) | x | -3.2% | i
68 | CCOc1cc(N2C(=O)CC3CS(=O)(=O)CC32)c(OCC)cc1NC(=O)c1ccccc1 (stereo unspecified) | -0.52 | -0.7% | i
69 | CCOC(=O)C1CCCN(c2nc3ccccc3nc2C(C#N)C(=O)OC(C)C)C1 (stereo unspecified) | 0.36 | -158% | i
70 | CCN(CC)CCCN(Cc1cc2cc(OC)c(OC)cc2[nH]c1=O)C(=O)Nc1ccccc1 | x | 11% | i
71 | O=C(CSc1ccccc1C(=O)O)NCc1ccco1 | 1.1 | 0.9% | i
72 | c1ccc2c(c1)CCN(c1nc3cc4c(cc3s1)OCO4)C2 | -0.55 | 0.5% | i
73 | CC(C)CCNC(=O)CN(Cc1ccc2c(c1)OCO2)C(=O)Cn1nnc(-c2cccs2)n1 | -0.56 | -1.5% | i
74 | Cc1cc(C)n2nc(C(=O)Oc3ccc4c(c3)OCO4)nc2n1 | -0.55 | -2.3% | i
75 | CN1CCN(c2ccc(NC(=O)c3cccc(OCc4ccccc4)c3)cc2)CC1 | -0.24 | 7.2% | i
76 | CCOc1ccc(N2Nc3n[nH]c(N)c3N2)cc1 | x | -2.5% | i
77 | Cc1nn2c(-n3ccnc3C)c3c(nc2c1-c1ccccc1)CCC3 | x | 2.6% | i
78 | CCCCCC(=O)Nc1ccc(N2CCN(C(=O)c3ccccc3)CC2)cc1 | 0.77 | 3.6% | i
79 | O=C(NCc1ccco1)c1cnn2c(C(F)F)cc(-c3ccccc3)nc12 | 0.48 | 5.4% | i
80 | CCOC(=O)N1CCC(NC(=O)CS(=O)Cc2nc(-c3ccc(OC)c(OC)c3)oc2C)CC1 (stereo unspecified) | 0.24 | 0.5% | i
81 | c1ccc2oc(SCc3nc4ccccc4s3)nc2c1 | -0.68 | -4.1% | i
82 | O=C(Cn1cnc2c(nnn2-c2cccc(Cl)c2)c1=O)N1CCOCC1 | -1 | 0.0% | i
83 | Cc1nc2ccc(S(=O)(=O)N(C)CC(=O)N3CCc4ccccc43)cc2s1 | 1.5 | -3.6% | i
84 | CCOC(=O)C1(c2ccccc2)NC(c2ccc(N(C)C)cc2)C2C(=O)N(C)C(=O)C21 (stereo unspecified) | -0.22 | 0.4% | i
85 | COC(=O)C(C(=O)Nc1cc(C)on1)C1CCCCCC1 (stereo unspecified) | -0.0068 | 0.1% | i
86 | COc1ccccc1-c1nc(NC(C)=O)n[nH]1 | -0.38 | -5.1% | i
87 | CC1CN(c2nc3c(c(=O)n(C)c(=O)n3C)n2Cc2c(F)cccc2Cl)CC(C)O1 (stereo unspecified) | 0.31 | 3.4% | i
88 | Cc1cccc2sc(NC(=O)c3ccc(Cl)s3)nc12 | 0.37 | 0.9% | i
89 | C=CCn1c(COc2ccccc2F)nnc1SCC(=O)Nc1cc2oc3ccccc3c2cc1OC | x | 6.4% | i
90 | O=C(CSc1nnc(-c2ccco2)o1)NC(=O)Cc1ccccc1 | 0.05 | 2.6% | i
91 | CCc1ccc(NC(=O)N(CCCN2CCOCC2)C(C)c2cc3cccc(OC)c3o2)cc1 (stereo unspecified) | -0.86 | -6.2% | i
92 | Cc1ccc(C(=O)NC2CCCCCC2)o1 | -1.4 | -0.5% | i
93 | CS(=O)(=O)N(CC(=O)O)c1ccc(Oc2ccccc2)cc1 | -1.3 | 2.6% | i
94 | Cc1ccc2[nH]c(=O)c(C3C(C#N)=C(N)Oc4c3ccc3cccnc43)cc2c1 (stereo unspecified) | x | 3.1% | i
95 | CC(=O)Nc1ccc(OCC(O)Cn2c(C)nc3ccccc32)cc1 (stereo unspecified) | x | 6.0% | i
96 | CCN(CC(=O)Nc1ccc2c(c1)CCC2)Cc1nc2ccccc2c(=O)[nH]1 | 0.02 | 0.4% | i
97 | Cc1nc(NCC2CCCO2)nc2c1C(=O)CC(C)(C)C2 (stereo unspecified) | -1.6 | -2.8% | i
98 | O=C(COC(=O)COc1ccccc1)Nc1ccccc1OC(F)F | 0.56 | -1.4% | i
99 | Cc1cc(C)nc(SC2CCCCC2O)n1 (stereo unspecified) | 0.54 | -3.0% | i
100 | CCOC(=O)c1[nH]c2cc3c(cc2c1NC(=O)CN1CCC(C)CC1)OCO3 | 0.61 | -12% | i
101 | Nc1cc(=O)[nH]c(SCc2ccc(Cl)cc2)n1 | x | 2.2% | i
102 | CC(C)(O)C(=O)NN(C(=O)c1ccccc1)c1ccc2ccccc2c1 | x | 3.9% | i
103 | COc1ccc(CCNC(=O)Cn2cnc3c(cnn3-c3ccccc3Cl)c2=O)cc1OC | 0.69 | -6.3% | i
104 | Cc1ccc(Nc2nc(N)nc(CSc3nccn3C)n2)cc1 | 0.73 | -0.4% | i
105 | CCCc1nnc(NC(=O)C2CCCO2)s1 (stereo unspecified) | 0.6 | -0.6% | i
106 | COc1ccc(OCc2nnc(SC(C)C(=O)Nc3nccs3)n2-c2ccccc2)cc1 (stereo unspecified) | -0.45 | 4.4% | i
107 | COc1ccccc1Nc1nc(C)cs1 | -1.7 | -16%&0.2% | i

An unsorted share of the library (roughly 0.77% active in at least one column).
